# High-throughput results from PubChem BioAssay.
# Mtb growth: Mycobacterium tuberculosis H37Rv growth inhibition, cell based, confirmatory dose response (AID 1949); 1.6% of 100,000 active; inhibition, % at 10 µg/mL, or IC50 in µg/mL where a hit was titrated; M. tuberculosis H37Rv growth inhibition; most inactive calls were filed without a number and no value below 0 was filed;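 active = confirmed in a dose series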;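 note: bacteria grown 7 days with compound before Alamar blue readout; 0% = untreated bacteria and 100% = reference antibiotic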
# The depositor's hits bear a star; i = inactive. This is a subset (hit frequency here may not be typical).
# The first 7 compounds as a preview:
SMILES,Mtb growth
N#Cc1c(C(F)(F)F)cc(-c2cccnc2)nc1SCC(=O)N1CCc2ccccc2C1,i
COc1ccc(OCC(=O)Nc2cc(OC)ccc2NC(=O)c2ccco2)cc1,i
COc1c(C)cc(Br)cc1C(=O)NC(=S)Nc1ccc2c(c1)OCCO2,i
COC(=O)CCN(C(=O)c1cccc(OC(C)=O)c1)c1ccccn1,i
Cc1ccc(S(=O)(=O)N2CCN(CCC(=O)O)CC2)cc1C,i
S=c1[nH]nc(CSc2nc3ccccc3[nH]2)n1-c1ccccc1,i
COC(=O)c1ccc(NC(=O)C2CCN(C(=O)c3cccc(Cl)c3)CC2)cc1,i

# The listing (from the top)
SMILES,Mtb growth
N#Cc1c(C(F)(F)F)cc(-c2cccnc2)nc1SCC(=O)N1CCc2ccccc2C1,i
COc1ccc(OCC(=O)Nc2cc(OC)ccc2NC(=O)c2ccco2)cc1,i
COc1c(C)cc(Br)cc1C(=O)NC(=S)Nc1ccc2c(c1)OCCO2,i
COC(=O)CCN(C(=O)c1cccc(OC(C)=O)c1)c1ccccn1,i
Cc1ccc(S(=O)(=O)N2CCN(CCC(=O)O)CC2)cc1C,i
S=c1[nH]nc(CSc2nc3ccccc3[nH]2)n1-c1ccccc1,i
COC(=O)c1ccc(NC(=O)C2CCN(C(=O)c3cccc(Cl)c3)CC2)cc1,i
CCc1cccc(C)c1NC(=O)COc1ccccc1Br,8%
COC(=O)c1ccc(CNC(=O)COc2ccccc2Br)o1,i
COc1ccc(-c2cc(=O)c3cc(OC(C)=O)ccc3o2)cc1,i
COC(=O)c1ccccc1NS(=O)(=O)c1cc(OCC(N)=O)c(C)cc1Cl,2%
Cc1ccccc1C(=O)N1CCN(c2ccc(N)cc2)CC1,i
Cc1cc(C(C)(C)C)ccc1OCCCCNC(C)C,3%
O=C(c1cccnc1)N1CCN(CCN2C(=O)C3C4C=CC(C4)C3C2=O)CC1 (stereo not drawn),i
COc1ccc(CNC(=O)C2CC2)cc1,i
COc1ccc(OC)c(C2C(C(=O)c3ccc(C)o3)=C(O)C(=O)N2CCCN2CCOCC2)c1 (stereo not drawn),i
CC(=O)N/C(N)=N/c1nc2ccccc2s1,4%
O=C(CNC(=O)c1cccs1)NCC(=O)OCc1c(F)cccc1Cl,i
Cc1ccc2[nH]c3c(c2c1)CCCC3NCC(O)Cc1ccccc1 (stereo not drawn),6µg/mL*
CS(=O)(=O)N(CC(=O)NCc1ccccn1)c1cccc([N+](=O)[O-])c1,i
COc1ccc(Br)cc1C(=O)Nc1ccc(NC(=O)C(C)C)cc1,2%
COc1ccc(-c2csc3ncn(CC(N)=O)c(=O)c23)cc1OC,i
COc1ccc(-c2cc(C(=O)NC3CCCCC3)c3ccccc3n2)cc1OC,i
O=C(Nc1c(F)c(F)c(F)c(F)c1F)C1CCCCC1,6%
O=C(CSc1nc2scc(-c3ccco3)c2c(=O)n1-c1ccccc1)NCC1CCCO1 (stereo not drawn),3%
COC(=O)c1ccc(C(=O)OC)c(NC(=S)N2CCOCC2)c1,i
O=C(NCc1ccccc1)c1cccc(F)c1,i
Cc1cccc(C)c1-n1nnnc1SCC(=O)NC(C)(C)C,i
O=C(NCCc1ccncc1)NC1CCCCC1,1%
COc1ccc(-c2cc(C(F)F)n3ncc(C(=O)Nc4ccc(OC)cc4OC)c3n2)cc1,2%
Cc1ccc(SCC(=O)N(C)C2CCS(=O)(=O)C2)cc1 (stereo not drawn),i
Oc1ccc(Br)cc1-c1nc(-c2cccs2)c(-c2cccs2)[nH]1,1.6µg/mL*
COc1ccccc1NC(=O)CN(c1cccc(Cl)c1)S(C)(=O)=O,1%
CCCc1cc(=O)[nH]c(Nc2ccc3c(c2)OCCO3)n1,i
N#Cc1c(C(F)(F)F)cc(-c2cccs2)nc1SCC(O)CN1CCSCC1 (stereo not drawn),11µg/mL*
CCOC(=O)CSc1nnc(-c2cccc(C)c2)n1-c1ccccc1,1%
O=C(CS(=O)(=O)Cc1ccccc1)N1CCN(Cc2ccc3c(c2)OCO3)CC1,i
Cc1cc(NS(=O)(=O)c2ccc(F)cc2)ccc1Br,12%
CCc1ccc(CNc2ccc(CNc3ncn[nH]3)cc2)cc1,28%
Cn1c(SCC(=O)N2CCOCC2)nnc1-c1cccs1,2%
CCCCC(=O)Nc1ccccc1NC(=O)c1ccc(OC)cc1OC,i
O=C(CSCc1ccc([N+](=O)[O-])cc1)NCCSCc1c(F)cccc1Cl,i
Cc1cccc(NC(=S)NCCN2CCN(c3cccc(C)c3C)CC2)c1C,12%
CCOc1ccccc1N(CC(=O)N1CCN(c2ccccc2)CC1)S(=O)(=O)c1ccc(C)cc1,i
CN(c1ccc(C(=O)N2CCN(c3ccc(F)cc3)CC2)cc1)S(C)(=O)=O,i
COC(=O)c1sccc1NC(=O)c1ccc(C(=O)Nc2ccsc2C(=O)OC)cc1,i
COc1cc2c(cc1OC)C(c1cc(OC)c(OC)cc1OC)CC(=O)N2 (stereo not drawn),i
CCOc1ccccc1C(=O)Nc1cccc(C(=O)OC)c1,i

# Given tab-delimited: entries from further up
Compound	Mtb growth
Cn1c(SCC(=O)N2CCOCC2)nnc1-c1cccs1	2%
COC(=O)c1sccc1NC(=O)c1ccc(C(=O)Nc2ccsc2C(=O)OC)cc1	i

# (more compounds)
SMILES,Mtb growth
Cc1ccc(N2CCN(C(=O)c3ccccc3[N+](=O)[O-])CC2)c(C)c1,1%
Cc1sc(NC(=O)c2ccccc2I)c(C(N)=O)c1C,i
COc1ccc(C2(C(=O)N3CCOCC3)CCCC2)cc1,i
Cc1ccc(NC(=O)CSc2ncnc3sc4c(c23)CCC4)cc1,i
CCOC(=O)c1cc(CC)sc1NC(=O)c1cc2ccccc2oc1=O,0.38µg/mL*
Cc1ccc(-c2n[nH]c(=S)n2Cc2ccccc2)cc1,i
CNC(=S)N1CCN(c2ccccn2)CC1,2%
O=C(Nc1ccc(-c2nc3ccccc3[nH]2)cc1)c1ccc(Cl)cc1,i
Cc1ccc(C)c(C(=O)N2CCN(c3ccc(F)cc3)CC2)c1,3%
Cc1ccc(S(=O)(=O)Nc2ccc(I)cc2)cc1,6%
Cc1ccc(-c2ccc(OCC(=O)NC3CCCC3)cc2)cc1,3%
CC(C(=O)Nc1ccc(Cl)cc1F)c1ccccc1 (stereo not drawn),i
Cc1nn(Cc2c(F)c(F)c(F)c(F)c2F)c(C)c1NC(=S)NCc1ccco1,i
CC(=O)Nc1ccccc1OC(=O)Oc1ccccc1,i
Cc1cccnc1Nc1nc(-c2ccccn2)cs1,<0.1µg/mL*
COc1ccc(N(CC(=O)NCc2ccncc2)S(=O)(=O)c2ccccc2)cc1Cl,0%
O=C(CSc1nnc(-c2ccc(Cl)cc2)n1-c1ccccc1)Nc1cccc(Cl)c1Cl,i
CCCCC(=O)Nc1ccc(NC(=O)c2ccc(Cl)c(Cl)c2)cc1OC,i
CC(C)c1ccc(OCC(=O)Nc2nonc2NC(=O)COc2ccc(C(C)C)cc2)cc1,i
COc1cc(NC(=S)N2CCCC(C)C2)c(OC)cc1Cl (stereo not drawn),i
O=C(O)c1cc2cc3ccccc3nc2s1,i
C=CCN(c1ccc(C(=O)NCc2ccccc2Cl)cc1)S(C)(=O)=O,i
COc1ccc(NC(=O)c2ccc(COc3ccccc3OC)o2)cc1OC,i
O=C(CCCC(=O)Nc1ccccc1F)Nc1ccccc1F,i
COc1ccc(S(=O)(=O)NCC2CCN(S(=O)(=O)c3ccc(OC)cc3)CC2)cc1,i
NC1=NC(=O)C(CC(=O)Nc2ccccc2[N+](=O)[O-])S1 (stereo not drawn),i
CC(=O)Nc1ccc(NC(=O)C(=O)NC(C)C)cc1,3%
O=C(NC(/C=C/c1ccccc1)c1cc([N+](=O)[O-])c2cccnc2c1O)C1CCCCC1 (stereo not drawn),4%
COc1ccccc1-c1nc(SCc2ccc(C(=O)O)cc2)n[nH]1,i
CCNC(=O)c1c(NC(=O)c2cc(OC)c(OC)c(OC)c2)sc2c1CCCC2,i
CCC(=O)Nc1ccc(N2CCN(CC)CC2)c(Cl)c1,i
CN1CCc2nc3sc4c(=O)c(=O)[nH][nH]c4c3cc2C1,i
O=C(COc1cc(Cl)c(Cl)cc1Cl)N1CCN(c2ccccc2F)CC1,1%
CCOC(=O)C1=C(c2ccccc2)OC(N)=C(C#N)C12C(=O)Nc1ccc(Cl)cc12 (stereo not drawn),i
O=S(=O)(c1c(F)cccc1F)N1CCCCCC1,i
COc1cc(C(=S)N2CCOCC2)cc(OC)c1OS(=O)(=O)c1ccc(C)cc1,i
Cc1ccc2nc(SCc3ccc4ccccc4c3)[nH]c2c1,11µg/mL*
Cc1ccc(C(=O)Nc2ccc(Cl)cc2)cc1Br,i
N#C/C(=C\c1c[nH]c2ccccc12)c1nc2cc(C(F)(F)F)ccc2s1,2%
O=C(O)CCCOc1cccc([N+](=O)[O-])c1,i
O=C(CSc1nnc(-c2cccc(F)c2)n1-c1ccccc1)NCCc1ccccc1,i
CCOC(=O)c1c(NC(=O)CSc2nc(C)c3c(n2)CCCC3)sc(C(C)=O)c1C,i
COC(=O)c1c(NC(=O)c2ccc(C)o2)sc2c1CCCCC2,16%
Cc1ccc(-n2c(SCc3ccc(Br)cc3)nnc2-c2ccncc2)cc1C,i
CCn1c(=O)c2cc(S(N)(=O)=O)ccc2n(CC)c1=O,i
Cc1cc(Cl)ccc1NC(=S)NCC(C)C,i
COCc1cc(C)nc(SCC(=O)Nc2nc3ccccc3s2)c1C#N,i
CCc1cccc2c(C#N)cn(CC(=O)NCc3ccccc3)c12,2%
COc1ccc(NC(=O)c2ccc(-c3ccccc3)cc2)c2ccccc12,i
COc1ccc(NC(=O)NCc2cc(C)n(C)n2)cc1OC,i
CCn1c(/C=C/c2ccco2)nc2ccccc21,i
CCCCOc1cccc(OCCCC)c1C(=O)NCc1ccco1,i
COc1cc(/C=C2\C(=O)NN(c3ccccc3)C2=O)cc([N+](=O)[O-])c1O,3%
CC(C)(C)c1ccc(C(=O)NC(=S)Nc2c(Cl)cc(Cl)cc2Cl)cc1,i
O=C(NC1C=CS(=O)(=O)C1)c1ccc([N+](=O)[O-])cc1 (stereo not drawn),7%
Cn1c(CN2CCOCC2)nnc1SCC(=O)Nc1nc(-c2ccccc2)cs1,i
CC(C)C(NC(=O)c1ccccc1)c1nnc(SCC(=O)c2ccccc2)n1C (stereo not drawn),i
O=C(NCC1COc2ccccc2O1)c1ccc(NC(=O)C2COc3ccccc3O2)cc1 (stereo not drawn),1.9µg/mL*
OC1/C(=C/c2ccc(-c3ccc(Cl)cc3)o2)N2CCC1CC2 (stereo not drawn),19%
CCOc1ccc(C2CC(c3ccc(C)cc3)n3nc(N)nc3N2)cc1 (stereo not drawn),1%

# Reformatted with each value named: part of the list above.
> COc1ccc(NC(=O)c2ccc(-c3ccccc3)cc2)c2ccccc12
  Mtb growth: i

> COc1ccc(NC(=O)NCc2cc(C)n(C)n2)cc1OC
  Mtb growth: i

> CCn1c(/C=C/c2ccco2)nc2ccccc21
  Mtb growth: i

> CCCCOc1cccc(OCCCC)c1C(=O)NCc1ccco1
  Mtb growth: i

# (more compounds)
SMILES,Mtb growth
CCCCc1ccc(S(N)(=O)=O)cc1,3%
CCOC(=O)COc1ccc(C(=O)Nc2cccc(Cl)c2C)cc1,<0.1µg/mL*
O=C(Nc1ccc(S(=O)(=O)N2CCOCC2)cc1)C1COc2ccccc2O1 (stereo not drawn),3%
N#Cc1c(NC(=O)c2ccc(-c3ccccc3[N+](=O)[O-])o2)sc2c1CCCC2,i
O=C(C(=O)N1CCCC1)c1c[nH]c2ccccc12,i
N#Cc1ccccc1COc1ccc(C=O)cc1,i
CC(C)CC(=O)Nc1ccc(I)cc1C(F)(F)F,i
CC(=O)c1ccc2c3c(cccc13)C(=O)N(c1ccccc1O)C2=O,i
CCc1ccccc1NC(=S)N1CCNC(=O)C1CC(=O)OC (stereo not drawn),i
CC(C)N1CC(C(=O)Nc2ccc(Br)cc2)CC1=O (stereo not drawn),i
O=C(Cc1ccc(Cl)cc1)Nc1cccc(C(=O)Nc2ccccc2C(=O)O)c1,4%
c1ccc(-c2nnc3n2N=C(c2c[nH]c4ccccc24)CS3)cc1,i
CC1(C)CC2CC(C)(CN2C(=O)C2CCN(S(=O)(=O)c3ccccc3[N+](=O)[O-])CC2)C1 (stereo not drawn),i
CCOC(=O)c1c(NC(=O)CN2CC(C)OC(C)C2)sc2c1CCCC2 (stereo not drawn),i
CCc1cc(=O)oc2cc(C)cc(OCC(=O)c3ccc(C)cc3)c12,i
O=C(CCc1ccccc1)Nc1nn[nH]n1,i
O=S(=O)(c1ccc2oc3ccccc3c2c1)N1CCOCC1,i
Cc1cc(NS(=O)(=O)c2ccc([N+](=O)[O-])cc2)cc(C)c1O,2%
CCNc1nc(SC(C)C(=O)Nc2ccccc2)nc(N2CCOCC2)n1 (stereo not drawn),i
COc1cccc(CNc2ccc(S(N)(=O)=O)cc2)c1OC,i
O=C(c1ccccc1)c1ccc(N2CCOCC2)c(NC(=O)c2ccco2)c1,i
CC(=O)NC(=S)Nc1cccc(Cl)c1,i
O=C(CSc1nnc2c(n1)[nH]c1ccccc12)Nc1ccc(Cl)cn1,i
N#C/C(=C/c1cn(-c2ccccc2)nc1-c1ccc(F)cc1)C(N)=S,i
CCOC(=O)c1ccc(Oc2nc(NC)nc(NC(C)(C)C)n2)cc1,i
O=C(CSc1ncc(-c2ccccc2)nn1)Nc1nc2c(s1)CCCC2,i
Cc1ccc(NC(=O)C(c2ccccc2)c2ccccc2)c(C)c1,i
Cc1cc(Cl)ccc1OC(C)C(=O)Nc1c(C)n(C)n(-c2ccccc2)c1=O (stereo not drawn),i
COc1ccc(NC(=O)c2c(NC(=O)CNC(C)(C)C)sc3c2CCC3)c(OC)c1,i
